D2 agonist: human D2 receptor agonism in beta-arrestin assay; 360,000 tested, 0.084% active; activation, % (concentration not given with the values); DiscoveRx PathHunter D2 beta-arrestin, luminescence, 90 min; 100% = 57 uM dopamine signal; P14416; AID 624465; in the data active = activation above about 40%; inconclusive = about 15% to 40%; inactive = below about 15%; note: compound concentration not given in the record; the text of the record calls up to 30% inactive
Target sequence (P14416 whole entry, looked up): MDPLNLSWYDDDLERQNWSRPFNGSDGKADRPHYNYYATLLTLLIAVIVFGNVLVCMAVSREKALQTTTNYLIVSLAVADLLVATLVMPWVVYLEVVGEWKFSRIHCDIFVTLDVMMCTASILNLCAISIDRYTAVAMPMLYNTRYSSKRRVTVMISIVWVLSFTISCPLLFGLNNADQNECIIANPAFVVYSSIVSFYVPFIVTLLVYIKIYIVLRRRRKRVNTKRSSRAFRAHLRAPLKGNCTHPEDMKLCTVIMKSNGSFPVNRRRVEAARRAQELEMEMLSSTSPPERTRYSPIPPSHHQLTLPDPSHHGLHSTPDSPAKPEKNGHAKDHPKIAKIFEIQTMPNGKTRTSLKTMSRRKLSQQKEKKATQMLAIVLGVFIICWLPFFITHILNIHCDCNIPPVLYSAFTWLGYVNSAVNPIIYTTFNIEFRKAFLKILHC
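DiscoveRx PathHunter D2 beta-arrestin cells (2,100/well) attached overnight, then compound-stimulated 90 min at 37 C in HBSS/10 mM HEPES/0.1% Tween-20 buffer; beta-galactosidase complementation read by luminescence after 1 h at ambient temperature. Dopamine 57 uM final (EC100) as control.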
ClpP mod: qHTS Assay for Activators of ClpP; purified B. subtilis ClpP, FRET peptide cleavage, 20 min; Potency, µM (highest dose often 57.5 µM), for inactives: at the highest dose activity change, negative = active; 340,000 tested, 1.9% active; active = well fitted falling curve with a large enough effect; inconclusive = small, poorly fitted or top-dose-only effect; inactive = no such curve, though single readings can be large or run the other way; note: potency is the fitted concentration of half-maximal effect; the source files actives as falling curves though it sought activators and does not explain the sign; nearly all actives have a fitted effect of over 65% in size; many hits overshoot -100%
Target sequence (P80244 whole entry, looked up): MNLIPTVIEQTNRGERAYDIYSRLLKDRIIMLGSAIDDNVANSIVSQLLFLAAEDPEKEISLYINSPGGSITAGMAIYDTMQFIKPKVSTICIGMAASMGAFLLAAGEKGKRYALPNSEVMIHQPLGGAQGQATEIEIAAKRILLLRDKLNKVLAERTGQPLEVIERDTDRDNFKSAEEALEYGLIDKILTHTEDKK
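Purified B. subtilis ClpP, 10 microg/mL final in Tris/HCl pH8 with KCl, BSA, glycerol and Tween-20, cleaved an Abz/nitrotyrosine-quenched decapeptide. Fluorescence (ex 320, em 430) was read at 0 and 20 min at room temperature. Delta was normalized to 5.8 microM ADEP and DMSO/no-enzyme controls.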
Sfp inh: blocks B. subtilis Sfp PPTase activity | Biochemical Sfp PPTase activity, qHTS | Potency, µM, without a hit: max response, negative = inhibition, actives largely listed as inhibitors | 310,000 tested, 3.5% active; active = well fitted inhibition curve with a large enough effect; inconclusive = small, poorly fitted or top-dose-only effect, or another doubt; inactive = no such curve, though single readings can be large or run the other way;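 note: the enzyme is Sfp with the accession as filed and its product quenches rhodamine fluorescence; potency is the fitted concentration of half-maximal effect; 0% = enzyme reaction without inhibitor and -100% = no enzyme wells; top concentration of the series not given in the record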
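After 15 min at room temperature with compound, 15 nM Sfp received 5 uM rhodamine-CoA plus 12.5 uM BHQ-2-ybbR (50 mM Hepes pH 7.6, 10 mM MgCl2). Rate came from the fluorescence difference over 30 min, ex 525/em 598 nm.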
Menin-MLL FL inh: menin-MLL binding inhibition, fluorescein peptide | FP activity change, % at 61.4 µM | AID 1766 | Fluorescence polarization, fluorescein-MLL peptide displacement from menin | 290,000 tested, under 10 active; inconclusive = falling polarisation curve, or a change in total fluorescence; inactive = total fluorescence flat and polarisation flat or rising; no compound was filed as active; the % refers to the polarisation; negative = inhibition;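 note: % of control where 0% means no effect; inhibitors lower the polarisation; unlabelled MLL peptide was the positive control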
gsp agonist: agonists of gsp mutant (McCune-Albright syndrome); gsp mutant cells, cAMP HTRF, 30 min; control for the full effect not named in the record; Potency, µM (doses to about 76.9 µM), inactives show at the top dose activation (cAMP increase), hits mostly activators; 340,000 tested, 0.13% active; AID 624287; active = well fitted activation curve with a large enough effect; inconclusive = small, poorly fitted or top-dose-only effect, or another doubt; inactive = no such curve, though single readings can be large or run the other way; cell line not stated here;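 note: phosphodiesterase inhibitor Ro 20-1724 added with compounds to block cAMP breakdown; potency is the fitted concentration of half-maximal effect; nearly all actives have a fitted effect of over 60% in size; about a fifth of the inactives were tested at one dose only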
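Cells stably selected in G418 were plated at 2000/well, grown 16-24 hr, then given compounds in DMSO with the PDE inhibitor […] (300 uM solution added) for 30 min at 37C; cAMP was read by HTRF.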
PINK1 modulator: changes PINK1 expression. PINK1 immunofluorescence, high-content cytometry, 24 h. Potency, µM (top dose mostly 76.6 µM), without a hit: at the top dose activation (PINK1 increase), usual class: activators. 410,000 tested, 0.2% active; active = well fitted activation curve with a large enough effect; inconclusive = small, poorly fitted or top-dose-only effect; inactive = flat fitted curve, though single readings scatter; cell line not stated here;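 note: potency is the fitted concentration of half-maximal effect; % of control where 0% means no effect; nearly all actives have a fitted effect of over 65% in size; a mitochondrial uncoupler was the plate control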
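Readout is PINK1 immunofluorescence, quantified alongside mitochondrial, cell and nuclear markers by laser-scanning microplate cytometry. Cells from a stable line were exposed to compound titrations (5 concentrations) for 24 hours, with CCCP controls.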
gsp antagonist: antagonizes gsp, the McCune-Albright syndrome mutation; gsp-mutant cells, cAMP HTRF, 30 min; control for the full effect not named in the record; 340,000 tested, 0.4% active; Potency, µM (highest dose often 76.9 µM), for the others: top-dose activity change, negative = inhibition, usual class: inhibitors; active = falling curve of any shape with a large fitted effect; inconclusive = falling curve, mostly with a smaller effect; inactive = flat or rising curve; cell line not stated here;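 note: intracellular cAMP measured with PDE inhibitor Ro 20-1724 present during compound exposure; potency is the fitted concentration of half-maximal effect; % is set by controls: 0 for no effect and ±100 for the full control effect; nearly all actives have a fitted effect of over 65% in size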
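HTRF cAMP read-out (cAMP-d2 plus anti-cAMP antibody-K in lysis buffer, 30 min RT). Before lysis, cells are exposed to compounds with […] for 30 min at 37C in DPBS containing Ca/Mg, BSA and Tween 20.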
* = called active by the depositor; ? = inconclusive; . = not tested or not shown; [ ] = another dose, or the depositor's remark.

compound,D2 agonist,ClpP mod,Sfp inh,Menin-MLL FL inh,gsp agonist,PINK1 modulator,gsp antagonist
COCC(=O)Nc1ccc2c(c1)[C@@H]1C[C@H](CC(=O)OC)O[C@@H](CO)[C@@H]1O2,-8.3,0.6%,.,.,13%,0.2%,.
Cn1ccc(-c2ccccc2)c(C#N)c1=O,-1.6,.,10%,4.5,?,-2.6%,10%
CCCCNC(=O)Cn1cnc2c(cnn2-c2ccc(C)cc2)c1=O,1.7,.,12%,-1.9,-4%,0.7%,10%
CC(C)(C)NC(=O)C(c1ccccn1)N(C(=O)c1csnn1)C1CCCCC1 (stereo unspecified),-0.2,.,20%,-4.4,-7%[15.4 µM],0.1%,9%
COc1ccc2[nH]cc(CCNC(=O)Cc3ccc(F)cc3)c2c1,0.8,-2.3%,8%,-0.2,-57%[inhibitor],-0.6%,8%
COCC(C)n1c(C)cc(C(=O)COC(=O)c2c(C)nn(-c3ccccc3)c2C)c1C (stereo unspecified),-0.3,8.2%,-4%,5.9,-8%,1.0%,-10%
CC1(C(=O)OCC(=O)c2c[nH]c3ccccc23)CC1(Cl)Cl (stereo unspecified),4.6,0.6%,15%,1.7,-8%,5.1%,-10%
COc1cccc(Nc2nc(CN3CCOCC3)nc3sc4c(c23)CCCC4)c1,-0.4,-5.1%,-27%,-2.6,4%,2.0%,-13%
Cc1ccc2nc(SCC(=O)NC3CCCc4ccccc43)[nH]c2c1 (stereo unspecified),-2.5,-1.1%,1%,-1.4,-30%[inhibitor],-0.3%,-14%
Cc1cc(S(=O)(=O)N2CCC(N3CCCCC3)CC2)ccc1-n1cnnn1,-1.8,1.7%,1%,-2.8,3%,0.6%,16%
O=c1[nH]c(N2CCOCC2)nc2c1CCCC2,0.2,0.2%,13%,1.3,-6%,-0.2%,11%
C=CCNC(=O)c1sc(=S)n(-c2ccc(C(=O)OCC)cc2)c1N,-5.3,-0.7%,20µM*,1.2,-10%,5.4%[38.3 µM],-13%
CCc1nnc(NC(=O)C2CCCN2C(=O)Nc2ccccc2)s1 (stereo unspecified),-1.7,.,5%,3.0,-2%[15.4 µM],-1.2%,13%
Cc1ccc(S(=O)(=O)NC2(C(F)(F)F)NC(=O)N(C)C2=O)cc1 (stereo unspecified),-1.3,0.2%,-1%,-1.0,?,.,4%
O=C(c1cccnc1)N1CCN(Cc2ccc3c(c2)OCO3)CC1,-1.9,7.4%,?,-3.3,-2%,-0.4%,5%
Nn1cc(-c2ccccc2)nc1SCC(=O)N1CCN(S(=O)(=O)c2ccc3ccccc3c2)CC1,-2.0,-13%,5%,3.2,2%,-1.1%,-14%
COc1ccc(-c2nc(C#N)c(NC(C)c3ccccc3)o2)cc1OC (stereo unspecified),-1.0,?,-27%,6.0,9%,0.8%,17%
CC1CCN(CC(=O)Nc2nc(-c3ccccc3)cs2)CC1,-1.6,.,3%,-0.4,-55%[inhibitor],-0.9%,-3%
Cc1ccc(S(=O)(=O)N2CCN(C(C)C(=O)Nc3ccccc3-c3ccccc3)CC2)cc1 (stereo unspecified),-2.3,-3.4%,10%,4.0,?,2.6%,-7%
CCCCN1C(=O)c2ccc(C(=O)N(C)CC(=O)Nc3ccc(OCC)c(OCC)c3)cc2C1=O,-4.8,0.4%,.,.,3%[15.4 µM],-0.1%,-1%
O=C(O)Cn1cc(CN2CCOCC2)c2ccccc21,2.4,-3.0%,6%,4.0,-39%,0.5%,3%
Cc1ccc(C(=O)NCC(=O)Nc2cccc(C(F)(F)F)c2)cc1,3.1,1.0%,20%,1.6,-15%,2.9%,5%
Cc1onc(-c2c(Cl)cccc2Cl)c1C(N)=S,-4.4,.,10%,5.8,-36%[inhibitor],1.9%,-1%
O=C(CSc1ccccn1)c1ccc2c(c1)OCO2,-0.6,-0.2%,-16%,-2.3,11%,-0.6%[38.3 µM],-14%
O=C(COc1ccc(Br)cc1)N(Cc1ccccc1)c1ccccn1,-8.2,-1.4%,4%,6.7,5%,-1.1%,-14%
Cc1ccc(S(=O)(=O)NN2C(=O)c3ccccc3NC2c2cccc(O)c2)cc1 (stereo unspecified),2.5,.,13%,1.6,37%,0.1%,3%
COc1ccc(C(NC(=O)CN2CCCCCC2)c2ccc(OC)cc2)cc1,-0.7,.,8%,1.5,18%,-1.0%,?
CCCc1cc(=O)n2[nH]cnc2n1,-1.1,-7.9%,-2%,3.2,2%,-3.5%,4%
CC(=O)NCCNc1ncnc2ccc(-c3ccc(C(=O)N(C)C)cc3)cc12,.,.,-6%,1.2,.,3.5%,.
O=C(O)CC/C(=N\Nc1ccc(S(=O)(=O)N2CCOCC2)cc1[N+](=O)[O-])c1cccs1,-5.4,.,1%,1.5,3%[15.4 µM],-0.6%,?
Cc1ccc(S(=O)(=O)Nc2c(C)n(C)n(-c3ccccc3)c2=O)cc1C(=O)OC(C)C(=O)c1ccccc1 (stereo unspecified),-1.0,0.9%,.,.,4%,0.4%,-23%
CCCc1nn(C)c(C(=O)Nc2cccc(CC)c2)c1Cl,1.3,0.8%,-8%,-0.7,0%,7.7%,-14%
O=C(OCCNc1ccc(C(F)(F)F)cc1[N+](=O)[O-])c1cc2ccccc2oc1=O,1.2,.,5%,?,8%,-1.5%,11%
CC(=O)OC(c1nc2ccccc2c(=O)n1C1CC2(OC1=O)c1ccccc1N1C(=O)C(C)(C)N(O)C12)C(C)C (stereo unspecified),-1.6,0.1%,8%,6.0,.,2.8%,?
COc1ccc(OC)c(-c2nn(-c3ccccc3)cc2C(=O)NCC2CCCO2)c1 (stereo unspecified),-3.5,-10%,.,.,30%,-0.8%,6%
Cc1ccc(S(=O)(=O)Nc2ccc(C(=O)NCc3ccccn3)cc2)cc1,5.1,-1.5%,14%,0.8,10%[15.4 µM],1.5%,12%
CC(=O)C(CC(=O)N1CCCC1)C(=O)Nc1ccc(Cl)cc1 (stereo unspecified),-1.6,0.3%,.,.,-5%,0.4%,5%
OC[C@@H](O)[C@@H](O[C@H]1O[C@H](CO)[C@@H](O)[C@H](O)[C@H]1O)[C@H](O)[C@@H](O)CO,-5.0,-0.3%,8%,2.0,.,-0.3%,5%
CS/C(=N\S(=O)(=O)c1cccs1)Nc1ccc(F)c(Cl)c1,-0.1,20µM*,-6%,6.3,6%,0.4%,-18%
Cc1ccccc1C(=O)Nc1sc2c(c1C(=O)O)CCC2,2.3,.,12%,-0.3,-11%,3.5%,-24%
Cc1sc2ncnc(Nc3ccc(N4CCOCC4)cc3)c2c1-c1ccccc1,-5.3,-23%,?,-1.5,-59%[inhibitor],1.0%,-3%
COc1ccc(N2C(=S)N=C(Nc3ccccc3)C23CCCCC3)cc1,-4.7,0.3%,26%,3.1,-28%,5.3%,1%
O=C(OCC(=O)N1CCOCC1)c1ccc(F)cc1Cl,2.1,.,15%,1.7,-44%[inhibitor],1.3%,7%
O=C(NCSc1ccnc(SCNC(=O)c2ccccc2)n1)c1ccccc1,0.7,-0.4%,-19%,1.3,-4%,5.3%[38.3 µM],8%
Cc1ccccc1OCC(=O)NCCc1nc2ccccc2[nH]1,-2.0,0.5%,1%,2.6,0%,1.7%,-5%
C/C(=N/Nc1ccc(C(=O)O)cc1)c1ccc(O)c(O)c1O,?,-2.6%,40µM*,4.2,?,2.4%,0%
NNC(=O)c1c(O)c2cccc3c2n(c1=O)CCC3,7.8,-13%,-10%,3.6,15%,8.3%,-20%
CCOc1ccc(Oc2nc(Nc3ccc(C)cc3)nc(N(C)C)n2)nn1,0.0,1.4%,-10%,1.8,-11%,1.1%,-20%
CC(C)NC(=O)N1CC[C@@]2(CCCN(S(C)(=O)=O)C2)C1,.,.,11%,1.7,.,0.9%,.
Cn1cc([N+](=O)[O-])c(C(=O)N/N=C/c2ccc3c(c2)OCO3)n1,-2.4,.,-6%,4.0,-8%[15.4 µM],0.4%,8%
CC(/C=N/O)Cc1ccc2c(c1)OCO2 (stereo unspecified),-1.8,-1.3%,15%,3.8,-15%,-0.9%,3%
CN(C)C(=O)c1ccc(NC(=O)c2cccc(S(=O)(=O)N3CCN(Cc4ccccc4)CC3)c2)cc1,4.5,0.5%,.,.,-12%,0.7%,-5%
CC(Sc1nnc(N)s1)c1ccccc1Cl (stereo unspecified),-3.0,1.3%,17%,0.4,3%,1.7%,11%
COc1ccc(NC(=O)CN(C)C(=O)Cn2cnc3c2c(=O)n(C)c(=O)n3C)cc1,-1.6,.,.,.,17%[15.4 µM],3.1%,13%
Cc1nnc(SC(C)C(=O)Nc2ccc3ccccc3c2)[nH]c1=O (stereo unspecified),-0.1,.,-11%,-1.7,16%,2.5%,-2%
COc1ccc(OC)c(NS(=O)(=O)c2ccc(Br)s2)c1,.,0.1%,9%,0.4,.,8.7%,.
CCCN(CCC)S(=O)(=O)c1cc2c(cc1Br)CCN2C(=O)CC,1.2,.,.,.,25%,2.4%,-29%
O=C(Nc1cccc(C(=O)N2CCCC2)c1)C1CC1,-4.9,-2.3%,.,.,.,0.2%,5%
COc1cc2c(cc1OC)C(=O)CC(C)S2 (stereo unspecified),-0.2,-3.9%,20%,-0.1,8%,3.3%,-7%
C=CCOCCN(C)C1=NS(=O)(=O)c2cc([N+](=O)[O-])ccc21,?,.,12%,2.6,4%,7.1%,-3%
Cc1ccc(SCc2cc(-c3ccc(Cl)cc3)on2)cc1,-1.4,-2.3%,-8%,-0.5,-14%,9.6%,-1%
COc1ccccc1CN1CC(C(=O)NCCC2=CCCCC2)CCC1=O (stereo unspecified),-2.3,-0.8%,0%,.,16%,-0.8%,-5%

No enrichment for hits; 5.1% or so of the library scored in one or more.
